Screening data: PubChem, several laboratories
FGF22 binding: shifts melting point of recombinant human FGF22; recombinant FGF22 thermal shift, SYPRO orange fluorescence; percent of sucrose octasulfate shift, DMSO zero; calls only at 9.99 µM; actives 1.5% (n = 340,000); Q9HCT0;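 active = melting point raised past a set limit in the mean and every replicate; three in four hits are not shown here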
Target sequence (Q9HCT0 whole entry, looked up): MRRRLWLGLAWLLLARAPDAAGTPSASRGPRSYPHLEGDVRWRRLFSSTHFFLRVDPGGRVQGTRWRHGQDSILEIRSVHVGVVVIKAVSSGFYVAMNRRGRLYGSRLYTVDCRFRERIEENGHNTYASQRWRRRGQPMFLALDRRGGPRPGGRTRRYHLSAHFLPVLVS
Bfl-1 A1 inh: inhibitors of the anti-apoptotic protein A1, read as caspase activation; actives 0.066% (n = 330,000); MEF A1-2A-BIM cells, Caspase-Glo 3/7 luminescence, 3 h; percent of clofoctol response, vehicle zero; AID 2462; caspase activation, % (concentration not given with the values);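 active = over half of replicate activation scores above 10%, or exactly half above 10 with the replicate mean above 10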;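 also: wells of about 30 µL received 50 nL stock; many hits fall short of the cut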
rRNA inh HTS: inhibitors of bacterial rRNA selective over humanized ribosomes; E. coli WT GFP vs humanized-ribosome RFP mutants, fluorescence, 24 h; hits give low values; DMSO median 0, no signal -100; AID 720706; GFP signal change (wild-type ribosome), % (no concentration beside the values); actives 1.6% (n = 350,000);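 active = significant combined selectivity score with lowered wild-type GFP, culture density cut under 30%, mutant RFP and density less affected; inactive = any of these conditions unmet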; also: one replicate is shown; some compounds called inactive have numbers as strong as hits
Beta cell apopt: beta cell apoptosis inhibition; protection from apoptosis, % (concentration not given with the values); INS-1E cytokine-induced death, ATP luminescence, 48 h; percent of positive-control rescue, neutral wells zero; actives 0.8% (n = 300,000);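 active = all replicates at 75% or more, or half of them and the mean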;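 also: 0% = cytokine-treated negative control wells and 100% = positive control rescue; higher means more ATP so stronger rescue from cytokine killing; wells of about 40 µL received 100 nL stock; the first replicate is given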
MLL AF4-AF9 inh: MLL-AF4/AF9 protein interaction inhibition | P42568 | AlphaScreen, biotin-AF4 peptide binding to FLAG-AF9 | inhibition, % at 10 µM | actives 0.47% (n = 350,000);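 active = every replicate reaching a set inhibition limit, whatever the replicate mean, cut at about 25% in these data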;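 also: 0% = plate neutral control median and 100% = total signal loss; the record names both 10 and 1 µM as test concentration; the first replicate is given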
Target sequence (P42568 whole entry, looked up): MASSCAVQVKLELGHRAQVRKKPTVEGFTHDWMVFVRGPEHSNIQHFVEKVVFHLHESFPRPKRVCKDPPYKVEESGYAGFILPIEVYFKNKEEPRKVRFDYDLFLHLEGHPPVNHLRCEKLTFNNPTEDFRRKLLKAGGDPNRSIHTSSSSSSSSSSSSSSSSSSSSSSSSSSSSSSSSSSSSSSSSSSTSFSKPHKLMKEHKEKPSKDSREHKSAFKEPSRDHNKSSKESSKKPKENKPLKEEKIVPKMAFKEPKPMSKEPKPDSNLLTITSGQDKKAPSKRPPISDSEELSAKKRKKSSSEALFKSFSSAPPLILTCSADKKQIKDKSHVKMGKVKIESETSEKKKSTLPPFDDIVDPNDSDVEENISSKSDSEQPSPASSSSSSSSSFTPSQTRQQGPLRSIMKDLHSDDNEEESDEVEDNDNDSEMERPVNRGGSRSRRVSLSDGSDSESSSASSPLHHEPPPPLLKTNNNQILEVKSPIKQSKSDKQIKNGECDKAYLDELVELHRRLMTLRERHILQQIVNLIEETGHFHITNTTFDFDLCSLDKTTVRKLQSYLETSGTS
Ecoli growth: blocks Escherichia coli growth. OD600, 23 h; hits give low values. AID 1053175. OD600 absorbance (concentration not given with the values). actives 0.21% (n = 330,000);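 active = OD600 absorbance below the run mean of sample wells minus 3.6 SD, in any replicate, cut at about 0.56 in these data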;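 also: stock transfer was 300 nL into about 60 µL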
UCH37 inh: blocks the human deubiquitinase UCH37; Q9Y5K5; purified proteasome/UCH37, Ub-AMC cleavage fluorescence; inhibition, % (no concentration beside the values); actives 0.33% (n = 330,000); AID 588478;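 active = mean of two replicates above 20%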;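 also: 0% = compound-free wells with enzyme and 100% = wells lacking proteasome; stock transfer was 100 nL into about 20 µL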
Target sequence (Q9Y5K5 whole entry, looked up): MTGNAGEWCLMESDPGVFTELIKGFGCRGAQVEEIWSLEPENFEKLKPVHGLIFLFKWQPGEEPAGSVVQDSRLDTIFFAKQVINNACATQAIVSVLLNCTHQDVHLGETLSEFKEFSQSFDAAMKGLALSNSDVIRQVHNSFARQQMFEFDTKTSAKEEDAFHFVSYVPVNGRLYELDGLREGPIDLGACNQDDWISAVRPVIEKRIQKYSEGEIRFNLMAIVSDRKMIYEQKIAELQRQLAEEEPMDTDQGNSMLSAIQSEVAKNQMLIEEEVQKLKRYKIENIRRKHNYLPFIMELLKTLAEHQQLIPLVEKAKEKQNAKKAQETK
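Material: Human UCH37 enzyme supplied as purified proteasome complex | Schedule: 30 min compound-proteasome preincubation then 25 min substrate reaction, room temperature | Detection: AMC fluorescence from Ub-AMC cleavage, excitation 355 nm, emission 460 nm | Benchmarks: Wells without proteasome as full block, compound-free enzyme plus substrate as uninhibited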
T cruzi inh: T. cruzi replication inhibition; T. cruzi beta-gal in NIH3T3, luminescence, 90 h; inhibition, % (test concentration not listed); actives 1.4% (n = 300,000);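 active = mean inhibition across valid replicates above about 55%, limit read from the data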;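 also: signal also drops with host cell toxicity which is not excluded here; 0% = plate median of DMSO wells and 100% = zero luminescence signal; higher percent means less beta-gal luminescence so fewer parasites; stock transfer was 50 nL into about 50 µL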
rRNA inh HTS OD600: further read-out of rRNA inh HTS, marked with its call; OD600 change, %; measured here: OD600 growth;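 optical density of the mix in the first replicate; 0 = DMSO median and -100 = no signal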
rRNA inh HTS RFP: also measured in rRNA inh HTS; calls as there; RFP signal change, %; measured here: RFP humanized mutant strains;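 first replicate; 0 = DMSO median and -100 = no signal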
The depositor's hits bear a star. Only part of the results is shown; rates above refer to the full screens.

Results for O=C(NCCCN1CCOCC1)c1ccccc1NS(=O)(=O)c1ccc(Br)cc1 ?
FGF22 binding: inactive; Bfl-1 A1 inh: 0.3; rRNA inh HTS: -9; Beta cell apopt: -3; MLL AF4-AF9 inh: 2.5; Ecoli growth: 0.67; UCH37 inh: -1.2; T cruzi inh: 9; rRNA inh HTS OD600: 0; rRNA inh HTS RFP: -1.9

What do the screens show for `CS(=O)(=O)c1ccc(NC(=O)CCN2C(=O)C3CCCCC3C2=O)cc1` (centres undefined)?
FGF22 binding: inactive; Bfl-1 A1 inh: -0.7; rRNA inh HTS: 5; Beta cell apopt: -2; MLL AF4-AF9 inh: 0.8; Ecoli growth: 0.67; UCH37 inh: 1.2; T cruzi inh: -7; rRNA inh HTS OD600: 4; rRNA inh HTS RFP: 0.1

How did NC(=O)C1CCN(CCC(=O)Nc2ccc(Br)cc2)CC1 do in these assays?
Bfl-1 A1 inh: -0.3; Ecoli growth: 0.67; UCH37 inh: 3.0; T cruzi inh: 1

Results for CN(CC(=O)Nc1ccc(F)cc1)C(=O)Cn1c(=O)oc2ccccc21 ?
FGF22 binding: inactive; Bfl-1 A1 inh: 1.4; rRNA inh HTS: 4; Beta cell apopt: 0; MLL AF4-AF9 inh: -0.2; Ecoli growth: 0.65; UCH37 inh: -3.0; rRNA inh HTS OD600: 12; rRNA inh HTS RFP: 2.2

How did Cc1ccc(NC(=S)NC2CC3CCC(C2)N3Cc2ccco2)cc1C (centres undefined) do in these assays?
FGF22 binding: inactive; Bfl-1 A1 inh: 1.2; rRNA inh HTS: 4; Beta cell apopt: -18; MLL AF4-AF9 inh: 15; Ecoli growth: 0.74; UCH37 inh: 4.2; T cruzi inh: 0; rRNA inh HTS OD600: 3; rRNA inh HTS RFP: -3.1

Results for O=C(O)/C=C/C(=O)Nc1ccc(S(=O)(=O)N2CCCC2)cc1 ?
FGF22 binding: inactive; Bfl-1 A1 inh: 0.1; rRNA inh HTS: 5; Beta cell apopt: 2; MLL AF4-AF9 inh: -1.3; Ecoli growth: 0.71; UCH37 inh: 2.6; T cruzi inh: -6; rRNA inh HTS OD600: 3; rRNA inh HTS RFP: -3.5

Results for CC1(C)CC(=O)N(c2cccc(Cl)c2)C(=O)C1 ?
FGF22 binding: inactive; Bfl-1 A1 inh: 1.1; rRNA inh HTS: 8; Beta cell apopt: -9; MLL AF4-AF9 inh: -1.5; Ecoli growth: 0.66; UCH37 inh: 2.6; T cruzi inh: 3; rRNA inh HTS OD600: 3; rRNA inh HTS RFP: -1.8

What do the screens show for `CCCn1nc(CC(=O)OCC)c2ccccc2c1=O`?
Bfl-1 A1 inh: -1.1; Beta cell apopt: -6; Ecoli growth: 0.73; UCH37 inh: -0.3; T cruzi inh: 1

Results for COc1ccc(CCn2c(=N)c(C(=O)NC3CCCC3)cc3c(=O)n4ccccc4nc32)cc1OC ?
FGF22 binding: inactive; Bfl-1 A1 inh: 0.6; rRNA inh HTS: 18; Beta cell apopt: 2; MLL AF4-AF9 inh: 1.3; Ecoli growth: 0.63; UCH37 inh: 0.8; T cruzi inh: 31; rRNA inh HTS OD600: 12; rRNA inh HTS RFP: 3.7

Results for Cc1cc(C(=O)N/N=C/c2ccc(Br)o2)n[nH]1 ?
FGF22 binding: inactive; Bfl-1 A1 inh: -0.2; rRNA inh HTS: 2; Beta cell apopt: -7; MLL AF4-AF9 inh: -3.3; T cruzi inh: 22; rRNA inh HTS OD600: 8; rRNA inh HTS RFP: -1.7

Results for CC(=O)SC1CC(=O)N(c2ccc(C(C)(C)C)cc2)C1=O (centres undefined) ?
FGF22 binding: inactive; Bfl-1 A1 inh: 1.0; rRNA inh HTS: -4; Beta cell apopt: -20; MLL AF4-AF9 inh: -0.2; Ecoli growth: 0.73; UCH37 inh: 7.9; T cruzi inh: 5; rRNA inh HTS OD600: 6; rRNA inh HTS RFP: -0.1

How did CC(NC(=O)CCN1C(=O)c2ccccc2S1(=O)=O)c1ccccc1 (centres undefined) do in these assays?
FGF22 binding: inactive; Bfl-1 A1 inh: 0.2; rRNA inh HTS: 5; Beta cell apopt: -5; MLL AF4-AF9 inh: -2.6; Ecoli growth: 0.64; UCH37 inh: 3.8; T cruzi inh: -4; rRNA inh HTS OD600: 3; rRNA inh HTS RFP: -0.4

How did O=C1OCCC1Sc1nnc(-c2cccc(Br)c2)o1 (centres undefined) do in these assays?
Bfl-1 A1 inh: -0.1; Beta cell apopt: 1; Ecoli growth: 0.74; UCH37 inh: -0.3; T cruzi inh: -3

Results for CC(C)(C)NC(=O)CSC(=Nc1ccc(F)cc1)NC#N ?
Bfl-1 A1 inh: 0.4; Ecoli growth: 0.73; UCH37 inh: 1.8; T cruzi inh: 6

What do the screens show for `COC(CN(C(=O)CCl)C(C(=O)NC1CCCC(C)C1C)c1ccc(C)cc1)OC` (centres undefined)?
Bfl-1 A1 inh: 0.9; Beta cell apopt: -7; UCH37 inh: 22*; T cruzi inh: -9

How did C/C(=N\NC(=O)c1cc(-c2ccccc2C)nc2ccccc12)c1cccnc1 do in these assays?
FGF22 binding: inactive; Bfl-1 A1 inh: -0.2; rRNA inh HTS: 8; Beta cell apopt: 36; MLL AF4-AF9 inh: 3.2; T cruzi inh: 18; rRNA inh HTS OD600: 14; rRNA inh HTS RFP: 5.1

Results for CC(=O)O[C@]1(C(C)=O)CC[C@H]2[C@@H]3C=C(Cl)C4=CC(=O)CC[C@]4(C)[C@H]3CC[C@@]21C ?
FGF22 binding: inactive; Bfl-1 A1 inh: -0.7; rRNA inh HTS: -44; Beta cell apopt: -4; MLL AF4-AF9 inh: 7.5; UCH37 inh: 0.4; T cruzi inh: 18; rRNA inh HTS OD600: -70; rRNA inh HTS RFP: -3.9

What do the screens show for `Cc1ccc(S(=O)(=O)N/N=C/c2ccccc2F)cc1[N+](=O)[O-]`?
FGF22 binding: inactive; Bfl-1 A1 inh: 1.9; rRNA inh HTS: 8; MLL AF4-AF9 inh: -3.5; T cruzi inh: 3; rRNA inh HTS OD600: 4; rRNA inh HTS RFP: 0.5

Results for CCCSc1oc(-c2ccco2)nc1S(=O)(=O)c1ccc(C)cc1 ?
FGF22 binding: inactive; Bfl-1 A1 inh: 0.4; rRNA inh HTS: -5; Beta cell apopt: -3; MLL AF4-AF9 inh: -1.1; Ecoli growth: 0.64; UCH37 inh: -0.1; T cruzi inh: 16; rRNA inh HTS OD600: -44; rRNA inh HTS RFP: -2.8

What do the screens show for `O=C(Nc1ccc(S(=O)(=O)Nc2ccccn2)cc1)c1ccccc1`?
FGF22 binding: inactive; Bfl-1 A1 inh: -0.6; rRNA inh HTS: 8; Beta cell apopt: -3; MLL AF4-AF9 inh: -3.5; Ecoli growth: 0.73; UCH37 inh: -10; T cruzi inh: -1; rRNA inh HTS OD600: 14; rRNA inh HTS RFP: 0.3

How did CCc1nnc(NC(=O)c2cccnc2)s1 do in these assays?
Bfl-1 A1 inh: -0.6; Beta cell apopt: -4; Ecoli growth: 0.75; UCH37 inh: 4.1; T cruzi inh: -5

Results for O=C(Nc1ccc(F)c(F)c1)C1CCCCC1 ?
FGF22 binding: inactive; Bfl-1 A1 inh: 1.0; rRNA inh HTS: -8; Beta cell apopt: 1; MLL AF4-AF9 inh: 0.6; Ecoli growth: 0.65; UCH37 inh: 0.6; rRNA inh HTS OD600: -15; rRNA inh HTS RFP: -4.7

What do the screens show for `O=C(COC(=O)c1c[nH]c(=O)[nH]c1=O)Nc1ccccc1Br`?
FGF22 binding: inactive; Bfl-1 A1 inh: -1.8; rRNA inh HTS: 7; Beta cell apopt: 0; MLL AF4-AF9 inh: 8.7; Ecoli growth: 0.66; UCH37 inh: 0.0; T cruzi inh: -11; rRNA inh HTS OD600: 1; rRNA inh HTS RFP: 1.7

Results for CCN(CC)S(=O)(=O)c1ccc(C)c(NC(=O)CSc2nc3ccccc3[nH]2)c1 ?
FGF22 binding: inactive; Bfl-1 A1 inh: 0.6; rRNA inh HTS: -34; Beta cell apopt: 6; MLL AF4-AF9 inh: -64; Ecoli growth: 0.69; UCH37 inh: 3.1; T cruzi inh: 13; rRNA inh HTS OD600: -34; rRNA inh HTS RFP: -6.3

What do the screens show for `O=S(=O)(Nc1ccc(F)cc1)N1CCOCC1`?
FGF22 binding: inactive; Bfl-1 A1 inh: 0.4; rRNA inh HTS: 1; Beta cell apopt: -1; MLL AF4-AF9 inh: -0.7; Ecoli growth: 0.65; UCH37 inh: 2.5; T cruzi inh: 3; rRNA inh HTS OD600: 9; rRNA inh HTS RFP: -2.4

How did O=C(CCS(=O)(=O)c1cc2c(cc1Cl)NC(=O)CO2)NCc1ccccc1 do in these assays?
FGF22 binding: inactive; Bfl-1 A1 inh: 0.4; rRNA inh HTS: 3; Beta cell apopt: -4; MLL AF4-AF9 inh: 0.6; Ecoli growth: 0.68; UCH37 inh: 2.1; T cruzi inh: 1; rRNA inh HTS OD600: 8; rRNA inh HTS RFP: 1.3

Results for COc1ccc(OC)c(C2Nc3ccccc3NC3=C2C(=O)CC(C)(C)C3)c1 (centres undefined) ?
FGF22 binding: inactive; Bfl-1 A1 inh: 0.3; rRNA inh HTS: 24; Beta cell apopt: -3; MLL AF4-AF9 inh: -7.1; Ecoli growth: 0.69; UCH37 inh: 9.8; T cruzi inh: 9; rRNA inh HTS OD600: -15; rRNA inh HTS RFP: 60

Results for CCCNC(=O)NC(=O)CSc1ncc(C(F)(F)F)cc1Cl ?
Bfl-1 A1 inh: -0.4; Beta cell apopt: -2; Ecoli growth: 0.69; UCH37 inh: 5.3; T cruzi inh: 4

How did CC(=O)c1cccc(OCc2cc(C(=O)N3C[C@H]4CC[C@H]3C4)no2)c1 do in these assays?
FGF22 binding: inactive; rRNA inh HTS: -10; MLL AF4-AF9 inh: -3.7; T cruzi inh: -4; rRNA inh HTS OD600: -18; rRNA inh HTS RFP: -1.3

Results for O=C(COc1ccccc1)NCC(=O)N/N=C/c1ccc(Cl)cc1 ?
FGF22 binding: inactive; Bfl-1 A1 inh: -1.1; rRNA inh HTS: 7; Beta cell apopt: -3; MLL AF4-AF9 inh: -3.3; T cruzi inh: 5; rRNA inh HTS OD600: 17; rRNA inh HTS RFP: 0.8

How did CCNc1ccc(S(=O)(=O)NCCN(C)C)cc1[N+](=O)[O-] do in these assays?
FGF22 binding: inactive; Bfl-1 A1 inh: 0.0; rRNA inh HTS: 3; Beta cell apopt: -1; MLL AF4-AF9 inh: 1.9; Ecoli growth: 0.68; UCH37 inh: 6.9; T cruzi inh: 16; rRNA inh HTS OD600: -1; rRNA inh HTS RFP: -4.7

Results for Fc1ccccc1NC(=S)N(CCN1CCCCC1)Cc1ccco1 ?
FGF22 binding: inactive; Bfl-1 A1 inh: 0.4; rRNA inh HTS: 1; Beta cell apopt: -7; MLL AF4-AF9 inh: -1.5; Ecoli growth: 0.7; UCH37 inh: 0.0; T cruzi inh: 1; rRNA inh HTS OD600: 0; rRNA inh HTS RFP: -0.6
